HPGD block – inhibitors of human 15-hydroxyprostaglandin dehydrogenase (HPGD). AID 894. Potency, µM, without a hit: at the highest dose activity change, negative = inhibition, hits mostly inhibitors. P15428. 4.3% of 150,000 active. purified HPGD, NADH fluorescence kinetic, PGE2 substrate; active = well fitted inhibition curve with a large enough effect (not every such curve was filed as active); inconclusive = small, poorly fitted or top-dose-only effect, or another doubt; inactive = no such curve, though single readings can be large or run the other way;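 further: top concentration of the series not given in the record; plate controls included wells without enzyme; inactives centre near -10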
Target sequence (P15428 whole entry, looked up): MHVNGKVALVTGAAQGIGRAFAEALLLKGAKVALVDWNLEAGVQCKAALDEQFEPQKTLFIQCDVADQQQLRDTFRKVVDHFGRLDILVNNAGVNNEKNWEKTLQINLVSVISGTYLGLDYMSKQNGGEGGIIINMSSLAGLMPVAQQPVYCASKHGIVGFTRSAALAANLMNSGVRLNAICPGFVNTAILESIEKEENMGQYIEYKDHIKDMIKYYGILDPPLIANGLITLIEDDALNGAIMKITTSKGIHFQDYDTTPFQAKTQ
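20 nM HPGD preincubated 15 min at room temperature with compound in 50 mM Tris-HCl pH 8, 0.01% Tween 20. Started with 1 mM NAD+ and 30 uM prostaglandin E2; NADH fluorescence (360/450 nm) read 5 times over 30-s intervals, last minus first.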
The depositor's hits bear a star; ? = inconclusive. On the % scale 0 is the no-effect control and ±100 the full control effect; potency means the concentration at half of the fitted maximal effect. The list is partial. The share of hits here may be higher or lower than overall.

molecule | HPGD block
COc1ccccc1OCCCn1c(=O)oc2ccccc21 | -24%
Cn1c(=O)oc2cc(S(=O)(=O)Nc3ccc4c(c3)OCCO4)ccc21 | ?
COc1ccccc1N1CCN(C(=O)c2c(-c3c(Cl)cccc3Cl)noc2C)CC1 | -11%
Cn1nnnc1SCc1ccc([N+](=O)[O-])cc1 | -5%
Cc1ccc(S(=O)(=O)N(CC(=O)N/N=C/c2ccc(F)cc2)c2cccc3cccnc23)cc1 | -9%
CCC(C)[C@H](N)c1nnc(SCC(=O)Nc2cccc(Cl)c2)o1 (some centres undefined) | 2%
COc1ccc2[nH]c3c(=O)n(CCCCC(=O)NCCN4CCCC4)c(=S)[nH]c3c2c1 | ?
Cc1onc(-c2ccccc2)c1C(=O)NCc1cccnc1 | -20%
Nc1ncnc2c1cnn2-c1ccccc1 | -29%
Cc1ccc(CNC(=O)NC2CCCCC2)cc1 | ?

Next section:
molecule | HPGD block
Cc1ccccc1CSc1nncn1N | -14%
Cc1cc(=O)c2c(O)c3c(O)cc(=O)c4c3c3c(cc(O)c1c23)C(C)(C)C=4O | -12%
O=S1(=O)CC=C(CSc2nc3ccccc3[nH]2)C1 | -2%
O=C(NCc1ccc2c(c1)OCO2)C1CCN(c2ccc(S(=O)(=O)N3CCCC3)cc2)CC1 | ?
COc1ccc(NC(=O)CSc2nnc3c4c(nc(-c5ccccc5)n23)CC(C)(C)OC4)cc1 | ?
CC1=C(C(=O)N2CCOCC2)C(c2ccsc2)C2=C(CCCC2=O)N1 (centres undefined) | ?
CN(C(=O)c1ccc(S(=O)(=O)NC2CCCC2)cc1)C1CCCCC1 | -9%
COc1ccc(N/N=C(\C=N\O)C(=O)c2ccc(OC)cc2)cc1 | -25%
COc1cc(/C(C)=N/NC(=O)CSc2nncn2C)ccc1OCc1ccccc1Cl | -22%
COc1ccc(CCCO[C@@H](Cn2ccnc2)c2ccc(OC)cc2)cc1 | -28%

Further results.
molecule | HPGD block
CCCc1ccc(OCCNC(C)=O)cc1 | -14%
Cc1c(C(=O)O)oc2c1/C(=N\O)CC(C)(C)C2 | -6%
CCCn1c(SCC(=O)Nc2ccc3c(c2)OCCO3)nnc1-c1ccco1 | 2%
O=C1C2Sc3[nH]c(=O)sc3C(c3ccccc3)C2C(=O)N1c1ccc(Cl)cc1 (centres undefined) | -2%
O=[N+]([O-])c1cccc(NC(=S)NCCc2ccccc2)c1 | 7.9µM*
COc1cccc(N(C(=O)c2cnccn2)C(C(=O)NC2CCCCC2)c2ccc(Cl)cc2)c1 (centres undefined) | -4%
COc1ccc(-c2nc(N)ncc2Oc2ccccc2Br)c(O)c1 | -13%
CC1(C)NC(=O)N(CC(=O)OCC(=O)Nc2cccc(F)c2)C1=O | 5%
COc1ccc(C(=O)C[n+]2ccc3c(c2)nc(-c2ccccc2)n3C)cc1 | -3%
NC(=O)C1(NC(=O)[C@@H]2CC3(CC(c4cccc(NC(=O)[C@@H]5CCC(=O)N5)c4)=NO3)CN2C(=O)Cc2ccc(Cl)cc2)CC1 (some centres undefined) | -6%

(next part)
molecule | HPGD block
O=C(CN1CCN(c2ccccn2)CC1)NCc1cccs1 | -6%
Cc1cccn2c(=O)c(C=Nc3c(C)n(C)n(-c4ccccc4)c3=O)c(N3CCCC3)nc12 | -18%
COC(=O)[C@@]1(Cc2ccccc2)[C@H]2c3cc(C(=O)N4CCCC4)n(Cc4ccc(C(F)(F)F)nc4)c3C[C@H]2CN1C(=O)c1ccccc1 | -10%
Cc1c(N)c(C(C)(C)C)cc(C(C)(C)C)c1[N+](=O)[O-] | -7%
COC(=O)CCC(=O)Nc1cccc(C(=O)Nc2cccc(Cl)c2)c1 | -39%
Cc1ccc(CCN2CC(C(=O)NCCCOC(C)C)CC2=O)cc1 (centres undefined) | -4%
Cc1nn(C)c(Cl)c1NC(=O)OCc1ccc(F)cc1 | -6%
Cc1cccc(C2=NC(C(F)(F)F)(C(F)(F)F)c3c(n(-c4ccc(F)cc4)c(=O)[nH]c3=O)N2)c1 | -10%
Cc1ccc(NC(C)C(=O)N/N=C/c2c[nH]c3ccccc23)cc1 (centres undefined) | -5%
O=C(NC(=S)Nc1ccc(S(=O)(=O)N2CCCC2)cc1)c1cccs1 | ?

Continued:
molecule | HPGD block
O=C(Oc1ccc(-c2ccccc2)cc1)N1CCOCC1 | -21%
Cc1cc(C(F)F)n2ncc(C(=O)NCc3ccccc3C(F)(F)F)c2n1 | ?
CSc1ccc(S(=O)(=O)Nc2c(C)cccc2C)cc1 | -12%
Cc1cc(=O)[nH]c(Cc2ccc(OC(C)C)cc2)n1 | -2%
COc1ccc(OC)c(/C=N/N(C)c2ccccc2)c1 | -7%
CCOC(=O)N1CCN(C(=O)Cc2ccc(-n3c(=S)[nH]c4ccccc4c3=O)cc2)CC1 | -15%
N/C(=N\c1nc(C(F)(F)F)cc(=O)[nH]1)Nc1ccc(Cl)cc1 | -9%
COc1cc2nc(SCC(=O)NCCc3ccccc3)n(Cc3ccco3)c(=O)c2cc1OC | -10%
CN1C(=O)c2ccc(C(=O)NCc3ccc4c(c3)OCO4)cc2C1=O | -5%
C[C@@H](/C=C\c1cccc(Oc2ccc(F)cc2)c1)N(O)C(N)=O | ?

Other records.
molecule | HPGD block
Cc1cc(C)nc(N(C#N)CCOc2ccc(Cl)cc2)n1 | -29%
Cc1c(C(=O)NCCCN2CCOCC2)oc2c1C1(CCC2)SCCS1 | -3%
CCC(C)(C)n1nnnc1CN1CCC(c2nc3ccc(C)cc3[nH]2)CC1 | -1%
Cc1cccc(C(=O)NNC(=O)CN2C(=O)c3ccccc3C2=O)c1 | -1%
CCOC(=O)Cc1cc(=O)[nH]c(Nc2nc3ccccc3o2)n1 | -26%
CCn1ncc(C2=NOC(C(=O)N3CCC(C(N)=O)CC3)C2)c1C (centres undefined) | -9%
CCOC(=O)c1c(C)n(CC(O)c2ccccc2)c2ccc(O)cc12 (centres undefined) | -13%
CC1(C)CC(=O)C2=C(C1)NC1=C(C(=O)c3ccccc31)C2c1ccc(O)cc1 (centres undefined) | -23%
COc1ccccc1CCN1C(=S)NC(C)(C)CC1(C)O (centres undefined) | -4%
CCn1nc(C(=O)N2CCc3ccccc3C2)c2ccccc2c1=O | -3%

Given field by field: entries from further up.
CCOC(=O)Cc1cc(=O)[nH]c(Nc2nc3ccccc3o2)n1
- HPGD block: -26%

CCn1ncc(C2=NOC(C(=O)N3CCC(C(N)=O)CC3)C2)c1C (centres undefined)
- HPGD block: -9%

CCOC(=O)c1c(C)n(CC(O)c2ccccc2)c2ccc(O)cc12 (centres undefined)
- HPGD block: -13%

CC1(C)CC(=O)C2=C(C1)NC1=C(C(=O)c3ccccc31)C2c1ccc(O)cc1 (centres undefined)
- HPGD block: -23%

The listing continues.
molecule | HPGD block
COc1cc(OC)c(C2Oc3nc(SC)nnc3-c3ccccc3N2C(C)=O)cc1OC (centres undefined) | -10%
O=C(Nc1ccc(Cl)cc1)NC1CCCCC1Cc1ccco1 (centres undefined) | -2%
O=C(Nc1ccc(Cl)cc1)Nc1nnc(-c2ccncc2)s1 | -8%
CSc1ncc(Cl)c(C(=O)Nc2ccccc2Cl)n1 | -14%
Cc1cc(C)n(-c2ccc(C(=O)Nc3ccc(C)c(S(=O)(=O)N(C)C)c3)cc2)n1 | -18%
CC(C)c1ccccc1NC(=O)c1ccco1 | 7%
COc1ccc(NC(=O)CN2CCN(C(=O)c3ccco3)CC2)c(OC)c1 | -4%
CC(C)c1nc(SCC(=O)Nc2cccc(C(F)(F)F)c2)c2c(=O)n(C)c(=O)n(C)c2n1 | -12%
Cc1ccc(C(=O)OCC(=O)Nc2ccc3c(c2)OCO3)o1 | -6%
C/C(=N\NC(=O)CC#N)c1cc2ccccc2oc1=O | ?

More results
molecule | HPGD block
OCCCN1c2ccccc2Nc2nnc(-c3ccccc3)cc21 | -23%
O=C(C1CCC(CNS(=O)(=O)c2cccc3nsnc23)CC1)N1CC=C(c2ccccc2)CC1 (centres undefined) | 16µM*
O=C(COc1cc(Cl)c(Cl)cc1Cl)Nc1ccncc1 | -6%
CCN(CC)CCCNc1nnc(C)c(=O)[nH]1 | -2%
N#Cc1ccc(CN2CCCC3(CCN(S(=O)(=O)c4ccccc4)CC3)C2)cc1 | 0%
Fc1ccc(NCc2nnc(SCc3nnc(-c4ccccc4)o3)n2CC2CCCO2)cc1 (centres undefined) | -6%
O=c1c2ccc([N+](=O)[O-])c3cccc(c32)c2nc3ccccc3n12 | 5%
CCN(CC)c1ccc2c(c1)CCCN2 | -10%
Cc1nnc(NC(=O)CSCc2ccccc2)s1 | -8%
CC(C)CC(=O)c1c[nH]c(C(=O)NCC2CCCO2)c1 (centres undefined) | 20µM*

(list continues)
molecule | HPGD block
CCc1nnc(NC(=O)CSc2nnc(-c3ccc(NS(=O)(=O)c4ccccc4)cc3)o2)s1 | 14µM*
COc1ccc(S(=O)(=O)NCCCCNS(=O)(=O)c2ccc(OC)cc2)cc1 | -10%
CC(=O)c1ccc(N2CCN(c3ncc(C(F)(F)F)cc3Cl)CC2)cc1 | ?
CCCCOc1ccc(C(=O)Nc2ccncc2)cc1 | -1%
CCc1nnc(NC(=O)[C@@H]2CCCN2S(=O)(=O)c2ccc3c(c2)OCCO3)s1 | -5%
O=C1NC(=O)/C(=C\c2ccc(Sc3ccc(Cl)cc3)o2)N1 | -10%
CC(/C=C/c1ccccc1)=N\NC(N)=S | -1%
CCOC(=O)N1CCN(C(=O)C2CCCN(S(C)(=O)=O)C2)CC1 (centres undefined) | -5%
CCSc1nnc(NC(=O)/C=C/c2ccc3c(c2)OCO3)s1 | -19%
Cc1cc(C)cc(Nc2cc(C)nc3nc(C)nn23)c1 | -22%

Carrying on:
molecule | HPGD block
Cc1n[nH]c(=S)c2nn(-c3ccccc3)c(C)c12 | -11%
COc1ccc(NC(=O)CC2C(=O)N(c3ccc(OC)cc3)C(=S)N2NC(=O)c2cccc(F)c2)cc1 (centres undefined) | -14%
Nc1c(Cl)ncnc1N/N=C/c1ccccn1 | -15%
COc1ccccc1-c1cc(C(=O)N/N=C\c2cn(C)nc2C)c2ccccc2n1 | -4%
CN1C(=O)C(O)(CC(=O)c2ccc(F)cc2)c2cc(Br)ccc21 (centres undefined) | ?
Nc1ccc2nc(-c3ccc(Cl)cc3)[nH]c2c1 | ?
Cc1ccc2nc(N(CCN(C)C)C(=O)c3cc(Cl)sc3Cl)sc2c1 | -6%
Cn1c(Cc2ccccc2)nnc1SCC(=O)N1CCCCC1 | -5%
NC(CSS(=O)(=O)O)=NCCC12CC3CC(CC(O)(C3)C1)C2 | ?
Cc1ccc(OCC(=O)Nc2ccccc2-c2ccccc2)cc1 | -14%

(listing goes on)
molecule | HPGD block
COc1ccc(N(C(=O)C2COc3ccccc3O2)C(C(=O)NC2CCCCC2)c2ccccc2)cc1OC (centres undefined) | -4%
Cc1ccc(OCC(=O)NCCN2CCCC2)cc1 | -12%
CCOC(=O)C1C(=O)OC2(CCCCC2)C1C(=O)OCC (centres undefined) | -12%
COc1cccc(C=NCCNC(=O)c2nonc2N)c1O | -12%
O=C(c1ccc2c(c1)OCO2)N(c1ccccc1)C1C=CS(=O)(=O)C1 (centres undefined) | -3%
COc1ccc(NC(=O)C(c2ccc(OC)cc2)N(C)C(=O)Cc2cccs2)cc1 (centres undefined) | 1%
CCOC(=O)N1CCN(C(=O)c2cc(Cl)c(Cl)cc2C(=O)O)CC1 | 3%
O=C(Cc1ccccc1I)Nc1ccccc1 | -16%
Nc1cc(C(=O)O)c(O)c(S(=O)(=O)O)c1 | -21%
CCOC(=O)CNc1c(-c2ccc(O)cc2)nc2ccccn12 | ?

Following part
molecule | HPGD block
CCCn1nc(Oc2nc(NCC)nc(NCC)n2)ccc1=O | -1%
COCc1c(Br)c(C)nc(OCC(=O)O)c1C#N | -13%
O=C1NC(c2ccccc2)(C(F)(F)F)SC2=CCCCCN12 (centres undefined) | -26%
CC(C)(CN)CN | 0%
Cc1nn(CC(=O)N(C)C)c(=O)c2ccccc12 | 3%
Cc1ccc2c(CC(=O)O)coc2c1C | -14%
O=C(CCC(=O)N1CCN(S(=O)(=O)c2ccc(Cl)cc2)CC1)Nc1cccc(Br)c1 | -10%
COc1cccc(C(=O)NNc2nc(C)cc(C)n2)c1 | -4%
O=c1[nH]c2ccc(Cl)cc2c(-c2ccccc2)c1N1CCOCC1 | -22%
C=CCn1c(SCc2cc(=O)n3ccsc3n2)nc2scc(C3CC3)c2c1=O | -14%

(next part)
molecule | HPGD block
Cc1ccc(C)n1/N=C1/NC(=O)CS1 | -20%
COc1cc2c3cc1Oc1cc(ccc1O)C[C@@H]1c4c(cc(OC)c(O)c4Oc4ccc(cc4)C[C@H]3[N+](C)(C)CC2)CC[N+]1(C)C | -2%
O=C(O)CCCCCN1C(=O)C2CCCCC2C1=O (centres undefined) | -12%
O=C(O)CSc1nc(SCc2ccccc2Cl)nc2c1CCCC2 | -26%
COC(=O)CCC(=O)OC1(C)C(=O)C=C2C=C(C3CC3)N(c3ccc(OC)cc3)C=C2C1=O (centres undefined) | -6%
CC(C)(C)OC(=O)NCCCCCc1nnc(SCC(=O)Nc2cccc(Cl)c2)o1 | 14µM*
Cc1ccc(SCc2cc(=O)[nH]c(/N=C(\N)Nc3cccc4ccccc34)n2)cc1 | -15%
Brc1ccc(C2=Nc3cccc4cccc(c34)N2)o1 | -9%
CCNc1ccc(C(=O)OCC)cc1NC(=O)c1cccc(S(=O)(=O)N(C)c2ccccc2)c1 | -16%
